Screening results deposited in PubChem by ICCB-Longwood Screening Facility, Harvard Medical School.
AID504770: growth inhibitors of E. coli YBA685 in a screen for V. cholerae RctB (chromosome II replication) inhibitors; 130,000 tested, 0.27% active; E. coli YBA685 rctB-dependent plasmid, OD600 growth, 3 h; hits give low values; z-score (no concentration beside the values); AID 504770;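 active means z-score under -2 on both plates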;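 further: wells of about 30 µL received 100 nL stock; score is relative to mean and SD of the test wells; the first replicate is given; strong numbers were not always called active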
CapD inh: CapD enzyme inhibition | purified CapD enzyme, fluorescence intensity read-out; hits give low values; some hits fall short of the stated cut | z-score (test concentration not listed) | 140,000 tested, 0.23% active;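 active means z-score under -4 in either of two replicates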;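 further: stock transfer was 100 nL into about 40 µL; score is relative to mean and spread of the plate; one replicate is shown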
* marks the source's active call; other numbers are inactive results; i = inactive; · = no result given.

Fields: AID504770	CapD inh
- COc1cc(CN(C)C(=O)C2CCN(C(C)=O)CC2)ccc1OCc1ccccc1
    -1.6	·
- O=C(Cc1ccccc1)Nc1ccc(N2C(=O)C3C4C=CC(C4)C3C2=O)cc1Cl (stereo not drawn)
    ·	-0.03
- O=C(NCC(c1ccco1)N1CCc2ccccc2C1)c1ccccc1 (stereo not drawn)
    -0.4	·
- Cc1cc(C)c(C#N)c(SCC(=O)n2nc(C)cc2C)n1
    -1	0.27
- O=C(C(c1ccccc1)c1ccccc1)N1CCCc2ccccc21
    ·	0.31
- O=C(Nc1ccc(Cl)cc1)N1CCCc2ccccc21
    ·	-0.59
- O=C(NCc1n[nH]c(=O)c2ccccc12)c1ccco1
    -0.05	·
- COc1cc(OC)c(OC)cc1/C=C/C(=O)N1CCN(C)CC1
    0	·
- Clc1ccc(CN2CCC(Cc3ccccc3)CC2)cn1
    0.75	0.46
- O=C(c1ccc(Cl)cc1)C1CN(Cc2ccco2)CCC1(O)c1ccc(Cl)cc1 (stereo not drawn)
    1.6	-0.48
- Cc1ccc(N2C(=O)/C(=C/c3ccc(Br)cc3)C=C2c2ccccc2)c(C)c1
    ·	0.54
- O=C(NNc1nc2c(F)cccc2s1)c1ccc(S(=O)(=O)N2CCCC2)cc1
    0.55	·
- Cc1cccnc1/N=C/c1c(O)n(-c2ccccc2F)c(=O)c2ccccc12
    0	-0.49
- O=C(Nc1ccccc1C(F)(F)F)N1CCC(c2nc(-c3cccs3)no2)CC1
    ·	0.11
- O=C(COc1ccccc1)Nc1nc2ccc(Cl)cc2s1
    2.1	i
- CCOC(=O)c1cc2c(ccn2-c2ccc(F)cc2)n1CC(=O)N1CCc2ccccc21
    0.65	·
- COC(=O)c1ccc(COC(=O)Cc2n[nH]c(=O)c3ccccc23)o1
    0.4	·
- O=C(Sc1ccc(Cl)cc1)c1ccc(-c2cccs2)s1
    0.7	6.7
- Cc1ccc(S(=O)(=O)NCc2c(C)nn(C)c2C)cc1
    1	0.32
- O=C(/C=C/c1ccco1)N1C(=Nc2ccccc2)SCc2ccccc21
    -0.55	·
- CSc1ccccc1C(=O)N1CC(C)OC(C)C1 (stereo not drawn)
    -0.3	-0.56
- O=C1NC(=O)C(=Cc2ccc(N3CCCC3)cc2)C(=O)N1
    -0.6	·
- O=C(Nc1cccc2nsnc12)c1cc2nc(-c3cccs3)cc(C(F)(F)F)n2n1
    ·	-0.31
- Cc1cc2nnnn2c(N(C)S(=O)(=O)c2ccccc2)n1
    -0.9	-0.51
- Cc1csc(SCC(=O)c2ccc(O)cc2O)n1
    0.45	·
- CC(=O)N1CCCN(S(=O)(=O)c2cccc3nonc23)CC1
    ·	-0.29
- COc1ccc(OCC(=O)Nc2ncccc2C)cc1
    -0.45	0.4
- CCCN1Cc2cccc(-c3nc(C)c(C(=O)OCC)o3)c2C1=O
    -0.4	-0.2
- O=C(O)CCCC(=O)N1CC(=O)Nc2ccccc21
    -0.45	·
- COc1ccc(/C=C2\SC(=O)N(CCC(=O)N3CCOCC3)C2=O)cc1OC
    ·	0.51
- COc1ccc(-c2noc(=O)n2Cc2ccccc2)cc1
    -0.75	·
- O=[N+]([O-])c1ccc(-c2nc(-c3ccc(Br)cc3)[nH]c2-c2ccc(Oc3ccc(-c4nc(-c5ccc(Br)cc5)[nH]c4-c4ccc([N+](=O)[O-])cc4)cc3)cc2)cc1
    ·	-0.07
- CC(Oc1ccc2c(c1)OCO2)C(=O)c1ccc(OC(F)F)cc1 (stereo not drawn)
    -0.15	·
- COCCN=Cc1c(CSc2ccc(Cl)cc2)[nH]n(-c2nc3ccccc3s2)c1=O
    ·	-0.15
- CCOC(=O)c1c(-c2cccs2)csc1NC(=O)CN1CCC(C)CC1
    -0.75	2.1
- O=C(O)c1ccccc1-n1cnnn1
    -0.6	-0.28
- CC(=O)N1CC(c2cnc(-c3ccccc3)c(C)c2)C=C(C)C1c1ccccc1 (stereo not drawn)
    -0.5	0.14
- Cc1ncc(CSc2ccccn2)c(CO)c1O
    0.25	8.2
- O=C(NCCSc1nc2ccccc2o1)c1ccccc1
    -0.25	-0.2
- CCOC(=O)NC(=S)c1cccn1C
    -0.75	-3.9
- CCOC(=O)Cc1cc(C(=O)c2ccc(OC)cc2)sc1-c1ccc(OC)cc1
    0.4	0.05
- COC(=O)c1ccsc1NC(=O)c1cccs1
    0.05	3.9
- Cc1ccc(SCC(=O)N(c2ccccc2)C(C)C)cc1
    0.4	0.22
- CC(NCc1ccc2c(c1)OCO2)C(=O)Nc1cc(Cl)cc(Cl)c1 (stereo not drawn)
    -0.5	·
- COC(=O)c1sc(NC(=O)c2cc3n(n2)C(C(F)(F)F)CC(c2ccc(Cl)c(Cl)c2)N3)c(C(=O)OC)c1C (stereo not drawn)
    ·	3.5
- COc1ccc(CNC(=O)COC(=O)C2CC3C=CC2C3)cc1 (stereo not drawn)
    -0.45	·
- COc1ccc(Cl)c(N=C2NC(=O)/C(=C\c3cccnc3)S2)c1
    -0.7	10
- Cc1ccc(N2CC(O)=C(c3nc4ccccc4s3)C2=N)c(C)c1
    -0.75	63
- Cc1cc(/C=N/NC(=O)c2ccccc2OC(F)(F)F)c(C)n1-c1cccc(C(F)(F)F)c1
    ·	0.18
- Cc1onc(-c2ccccc2Cl)c1C(=O)N1CCCCC1C (stereo not drawn)
    0.05	0.66
- S=c1oc(C2COc3ccccc3O2)nn1CN1CCN(C/C=C/c2ccccc2)CC1 (stereo not drawn)
    -0.75	·
- Cc1ccc2c(c1)NC(=O)c1cc(S(=O)(=O)N3CC(C)OC(C)C3)ccc1O2 (stereo not drawn)
    -0.45	0.11
- COC(=O)c1ccccc1NC(=O)N1CCC(CN2CCOCC2)CC1
    -0.95	40
- CC1(C)C(=N)N(c2ccccc2)C(=O)N1c1ccccc1
    0.15	4.6
- O=S(=O)(c1cc(C(F)(F)F)cc(C(F)(F)F)c1)N1CCN(Cc2ccccc2)CC1
    ·	-0.34
- CCCCNC(=O)Cc1ccc(Br)cc1
    0.7	·
- COCCOC(=O)C1=C(C)NC2=C(C(=O)CC(c3ccc(OC)c(OC)c3)C2)C1c1ccccc1C (stereo not drawn)
    ·	0.32
- Cc1cccc(N2CCN(C(=O)CCNS(=O)(=O)c3cccc4nsnc34)CC2C)c1 (stereo not drawn)
    -0.55	0.11
- CCCc1cc2c(=O)c(-c3ccc4c(c3)OCCCO4)coc2cc1OC(C)C(=O)OC (stereo not drawn)
    ·	0.25
- CCOC(=O)N1CCC(NC(=O)CCn2cccc2)CC1
    0.45	-1.4

The list continues.
Fields: AID504770	CapD inh
- Cc1cc(NC(=O)COC(=O)C2(c3ccc(Cl)cc3)CCCC2)no1
    0.9	·
- O=C(O)/C(=C/C(=O)c1ccc(F)cc1)Nc1ccc2[nH]c(=O)[nH]c2c1
    -0.45	0.015
- O=C(CC(C(=O)O)C1CCCO1)Nc1cccc(C(F)(F)F)c1 (stereo not drawn)
    -0.4	0.59
- COc1ccc(N2C(=O)CC(c3ccc([N+](=O)[O-])cc3)C3=C2CCCC3=O)cc1 (stereo not drawn)
    ·	-0.53
- CCC(=O)N(Cc1cc2ccc(C)cc2n2nnnc12)C1CCCCC1
    -0.35	·
- Cn1ccnc1-c1nc2ccccc2[nH]c1=O
    -0.15	·
- O=C1CSC(c2ccc(Cl)cc2)N1CCN1C(=O)CSC1c1ccc(Cl)cc1 (stereo not drawn)
    -0.55	-0.085
- O=c1n(Cc2ccc(Br)cc2)nnn1-c1ccccc1
    -0.35	·
- COc1ccc(/C=C(/NC(=O)c2ccccc2)C(=O)N2CC(C)OC(C)C2)cc1 (stereo not drawn)
    -0.4	0.11
- COC(=O)c1ccc(NC(=O)C2COc3ccccc3O2)cc1 (stereo not drawn)
    ·	-0.24
- Cc1ccc(N2C(=O)/C(=C/c3ccc(Cl)cc3)C=C2c2ccccc2)cc1C
    ·	-0.15
- Cn1c(C(=O)O)cc2ccccc2c1=O
    -0.7	·
- Clc1ccc(Nc2cc(-c3ccccc3)nc3ncnn23)cc1
    0.2	1.1
- COC(=O)C1(O)/C(=C(\O)c2ccccc2)C(=O)C(=O)N1c1ccc(OC)cc1 (stereo not drawn)
    ·	0.085
- CCN(CC)CCOc1ccc(/C(=C(\Cl)c2ccccc2)c2ccccc2)cc1
    0.6	0.73

One compound at a time (already shown).
Profile of `O=C1CSC(c2ccc(Cl)cc2)N1CCN1C(=O)CSC1c1ccc(Cl)cc1` (stereo not drawn) → AID504770: -0.55; CapD inh: -0.085
Profile of `O=C(O)/C(=C/C(=O)c1ccc(F)cc1)Nc1ccc2[nH]c(=O)[nH]c2c1` → AID504770: -0.45; CapD inh: 0.015

Carrying on.
compound,AID504770,CapD inh
OCCNC(=S)Nc1cccc(-c2n[nH]c(=S)o2)c1,·,1.9
Cc1sc(NC(=O)/C=C/C(=O)O)c(C#N)c1C,-0.05,-0.82
C=CCSc1nc2ccccc2c(=O)n1CC1CCCO1 (stereo not drawn),-0.6,·
CCN=C1S/C(=C\c2ccc(Oc3ccc([N+](=O)[O-])cc3C#N)c(OC)c2)C(=O)N1CC,·,-0.23
N#CCn1cc(C(=O)C(F)(F)F)c2ccccc21,0.95,·
Cc1cc(C)cc(-n2nc3c(c2NC(=O)c2cccs2)CSC3)c1,-0.3,-0.005
Cc1ccc(N2C(=O)N(c3ccccc3)C(=N)C2=S)cc1Cl,-0.95,-0.47
CC(C)N1C(=O)CC(N2CCOCC2)C1=O (stereo not drawn),-0.95,0.06
Cc1cccc(C)c1NC(=O)C1C2C=CC(C2)C1C(=O)O (stereo not drawn),-0.3,0.055
CC(=O)c1ccc(N2CCN(C(=O)C(c3ccccc3)c3ccccc3)CC2)cc1,·,14
COc1ccc(C(=O)OCC2CC(c3ccccc3)=NO2)cc1OC (stereo not drawn),0.55,0.42
Cc1ccc(Nc2cnn(-c3nc4ccccc4o3)c(=O)c2Cl)cc1F,-1.6,-1
CN(C)C(=O)N1CCC(C(=O)N2CCC3(CC2)OCCO3)CC1,0.8,65
Nc1nn(-c2ccc(Cl)cc2Cl)cc1-c1cccs1,-0.35,-0.39
O=C1CC(c2coc3ccccc3c2=O)Sc2ccccc2N1 (stereo not drawn),-0.45,-0.27
N#CCc1nn(-c2ccccc2)c(N)c1C#N,·,-0.56
Cn1c(SCc2ccccc2)nnc1C1CCCN1S(C)(=O)=O (stereo not drawn),-0.15,·
O=C(NC1CCCC1)c1csc2c1CCCC2,-0.1,0.37
C=CCn1c(SCC(=O)NCCOCCO)nc2sc(C)c(C)c2c1=O,·,0.14
CC(C)n1c(-c2ccccc2)nc(=S)c2c1CCCC2,-0.35,·
Cc1ccc(CNC(=O)Cc2ccc(-n3cccc3)cc2)cc1,-0.4,·
CC1CCCCC1NC(=O)c1ccc(/C=C2/Sc3ccccc3NC2=O)cc1 (stereo not drawn),-0.5,0.67
C=C(C)CC1(CC(=C)C)CCCCN1,-1.1,·
Cc1ccc2nc(CCCC(=O)OC(C)C)[nH]c2c1,0,0.12
Cc1noc2nc(-c3cccs3)cc(C(F)(F)F)c12,-0.3,85
CS(=O)c1ccccc1-c1nc(-c2ccc(C(F)(F)F)cc2)no1 (stereo not drawn),·,-0.05
O=C1c2ccccc2C(=O)N1CCSC1=Nc2ccccc2C2CC=NN12 (stereo not drawn),0.65,·
O=C(c1cccc(C(F)(F)F)c1)C1CCN(C(=O)N2CCOCC2)CC1,0.7,·
NNC(=O)c1ccccc1CO,·,-0.31
O=[N+]([O-])c1cccc(-c2csc(Nc3ccccc3Cl)n2)c1,·,-0.71
O=S(=O)(NCc1ccc(C(F)(F)F)cc1)c1cc(Br)c(Br)s1,·,-0.3
CCN1C(=O)/C(=c2\sc3n(c2=O)C(c2ccc(OC)cc2)C(C(=O)OC)=C(C)N=3)c2ccccc21 (stereo not drawn),·,-0.43
Cc1ccccc1Cc1c(C)nc2c(C(=O)NC3CC3)cnn2c1C,2.1,1.6
COc1ccc(CNS(=O)(=O)N(C)C)cc1,0,0.28
CC(C)c1ccc(NC(=O)C2CC(=O)NC(N3CCN(c4ccccn4)CC3)=N2)cc1 (stereo not drawn),-1.2,·
Cc1c(C(=O)O)sc2nc3n(c(=O)c12)CCC3,·,-5.2*
CC(=O)Nc1cc(C(=O)N2CCN(c3cc(Cl)ccc3C)CC2)ccc1Sc1ccc(F)cc1,0,-0.16
CC1=NN(c2ccc(Br)cc2)C(=O)/C1=C/c1ccc(-c2ccc3c(c2)C(=O)OC3)o1,·,6.2
O=C(CSc1ccc(C(F)(F)F)cn1)Nc1cccc2nsnc12,0.3,0.32
CC(=O)Nc1c(C(=O)N2CCCCCC2)cnn1-c1ccccc1,-0.45,0.42
Cc1ccccc1Nc1nc(N)nc(COC(=O)COc2ccc(C#N)cc2)n1,-0.3,·

Molecules shown so far that have a CF3 group (12):
compound,AID504770,CapD inh
O=C(Nc1ccccc1C(F)(F)F)N1CCC(c2nc(-c3cccs3)no2)CC1,·,0.11
O=C(Nc1cccc2nsnc12)c1cc2nc(-c3cccs3)cc(C(F)(F)F)n2n1,·,-0.31
COC(=O)c1sc(NC(=O)c2cc3n(n2)C(C(F)(F)F)CC(c2ccc(Cl)c(Cl)c2)N3)c(C(=O)OC)c1C (stereo not drawn),·,3.5
Cc1cc(/C=N/NC(=O)c2ccccc2OC(F)(F)F)c(C)n1-c1cccc(C(F)(F)F)c1,·,0.18
O=S(=O)(c1cc(C(F)(F)F)cc(C(F)(F)F)c1)N1CCN(Cc2ccccc2)CC1,·,-0.34
O=C(CC(C(=O)O)C1CCCO1)Nc1cccc(C(F)(F)F)c1 (stereo not drawn),-0.4,0.59
N#CCn1cc(C(=O)C(F)(F)F)c2ccccc21,0.95,·
Cc1noc2nc(-c3cccs3)cc(C(F)(F)F)c12,-0.3,85
CS(=O)c1ccccc1-c1nc(-c2ccc(C(F)(F)F)cc2)no1 (stereo not drawn),·,-0.05
O=C(c1cccc(C(F)(F)F)c1)C1CCN(C(=O)N2CCOCC2)CC1,0.7,·
O=S(=O)(NCc1ccc(C(F)(F)F)cc1)c1cc(Br)c(Br)s1,·,-0.3
O=C(CSc1ccc(C(F)(F)F)cn1)Nc1cccc2nsnc12,0.3,0.32

The order is random; any-hit rate near 0.41%.
